gsp ag = agonists of gsp mutant (McCune-Albright syndrome); 0.13% of 340,000 active; Potency, µM (top dose mostly 76.9 µM), inactives show top-dose activation (cAMP increase), usual class: activators; gsp mutant cells, cAMP HTRF, 30 min; control for the full effect not named in the record; active = well fitted activation curve with a large enough effect; inconclusive = small, poorly fitted or top-dose-only effect, or another doubt; inactive = no such curve, though single readings can be large or run the other way; cell line not stated here;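 further: phosphodiesterase inhibitor Ro 20-1724 added with compounds to block cAMP breakdown; potency means the concentration at half of the fitted maximal effect; nearly all actives have a fitted effect of over 60% in size; about a fifth of the inactives were tested at one dose only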
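Cells stably selected in G418 were plated at 2000/well, grown 16-24 hr, then given compounds in DMSO with the PDE inhibitor […] (300 uM solution added) for 30 min at 37C; cAMP was read by HTRF.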
TRPV1 potentiator = human TRPV1 potentiation | 0.02% of 320,000 active | AID 540277 | potentiation, % at 8.33 µM | Q8NER1 | TRPV1-expressing cells, Fluo-8 calcium influx, capsaicin EC20 potentiation; host cell line not named in the record; control for the full effect not named in the record; active means potentiation above 80%; inconclusive means 30% to 80%; inactive means below 30%; further: 0% is about no effect
Target sequence (Q8NER1 whole entry, looked up): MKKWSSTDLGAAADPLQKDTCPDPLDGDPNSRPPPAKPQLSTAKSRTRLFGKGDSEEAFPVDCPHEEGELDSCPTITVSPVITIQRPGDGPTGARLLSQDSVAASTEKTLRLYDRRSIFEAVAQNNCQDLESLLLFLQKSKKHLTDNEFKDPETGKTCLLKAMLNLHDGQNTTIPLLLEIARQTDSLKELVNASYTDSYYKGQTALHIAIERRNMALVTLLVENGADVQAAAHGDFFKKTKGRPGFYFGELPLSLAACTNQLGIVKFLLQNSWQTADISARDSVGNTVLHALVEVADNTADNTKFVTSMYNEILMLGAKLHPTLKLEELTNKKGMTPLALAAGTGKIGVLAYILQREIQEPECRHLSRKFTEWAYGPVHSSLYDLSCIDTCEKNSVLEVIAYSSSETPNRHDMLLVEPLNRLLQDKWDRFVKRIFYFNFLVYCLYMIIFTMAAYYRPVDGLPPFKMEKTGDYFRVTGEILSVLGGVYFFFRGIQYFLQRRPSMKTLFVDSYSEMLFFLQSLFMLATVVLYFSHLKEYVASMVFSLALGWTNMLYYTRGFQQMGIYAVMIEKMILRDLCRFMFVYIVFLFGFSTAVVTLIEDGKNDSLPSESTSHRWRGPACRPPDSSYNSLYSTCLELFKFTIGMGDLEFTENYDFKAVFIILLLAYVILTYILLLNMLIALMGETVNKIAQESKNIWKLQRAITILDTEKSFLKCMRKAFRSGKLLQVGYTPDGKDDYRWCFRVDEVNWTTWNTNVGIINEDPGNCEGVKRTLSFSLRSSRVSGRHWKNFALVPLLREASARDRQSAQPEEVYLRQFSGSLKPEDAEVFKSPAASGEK
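Fluo-8 calcium influx in TRPV1-expressing cells, kinetic read (ex 480/em 520 nm). Compound added and read 3 min for agonist activity, followed by capsaicin at EC20 final and 2 min further read for enhancement.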
gsp antagonist = antagonizes gsp, the McCune-Albright syndrome mutation. gsp-mutant cells, cAMP HTRF, 30 min; control for the full effect not named in the record. Potency, µM (series often up to 76.9 µM), for inactives: top-dose activity change, negative = inhibition, usual class: inhibitors. 0.4% of 340,000 active. AID 624288; active = falling curve of any shape with a large fitted effect; inconclusive = falling curve, mostly with a smaller effect; inactive = flat or rising curve; cell line not stated here;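 further: intracellular cAMP measured with PDE inhibitor Ro 20-1724 present during compound exposure; potency means the concentration at half of the fitted maximal effect; on the % scale 0 is the no-effect control and ±100 the full control effect; nearly all actives have a fitted effect of over 65% in size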
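HTRF cAMP read-out (cAMP-d2 plus anti-cAMP antibody-K in lysis buffer, 30 min RT). Before lysis, cells are exposed to compounds with […] for 30 min at 37C in DPBS containing Ca/Mg, BSA and Tween 20.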
CtBP-E1A inh = blocks the CtBP interaction with E1A. AlphaScreen GST-E1A/His-CtBP binding, 1536-well; active compounds read low; control for the full effect not named in the record. AID 651724. activity change, % (no concentration beside the values). 0.49% of 340,000 active; in the data active means activity change below about -65%; inconclusive means about -30% to -65%; inactive means above about -30%; further: on the % scale 0 is the no-effect control and ±100 the full control effect
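GST-E1A and His-tagged CtBP (125 nM each as 5X stock) were preincubated with pin-transferred compound for 2 h at 37 °C in the dark, then glutathione donor and nickel acceptor beads were added for 1 h before AlphaScreen reading.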
ClpP mod = qHTS Assay for Activators of ClpP. purified B. subtilis ClpP, FRET peptide cleavage, 20 min. Potency, µM (highest dose often 57.5 µM), for the others: at the top dose activity change, negative = active. 1.9% of 340,000 active. AID 651965, 2013; active = well fitted falling curve with a large enough effect; inconclusive = small, poorly fitted or top-dose-only effect; inactive = no such curve, though single readings can be large or run the other way; further: potency means the concentration at half of the fitted maximal effect; the source files actives as falling curves though it sought activators and does not explain the sign; nearly all actives have a fitted effect of over 65% in size; many hits overshoot -100%
Target sequence (P80244 whole entry, looked up): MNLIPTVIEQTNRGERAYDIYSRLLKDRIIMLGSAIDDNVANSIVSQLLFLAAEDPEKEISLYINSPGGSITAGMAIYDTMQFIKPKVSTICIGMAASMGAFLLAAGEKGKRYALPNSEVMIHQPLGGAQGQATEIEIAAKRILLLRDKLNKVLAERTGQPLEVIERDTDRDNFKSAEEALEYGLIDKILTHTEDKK
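FRET quenching reversal measured ClpP activation: 10 microg/mL B. subtilis ClpP at pH 8 with the FRET-FV decapeptide, read at 430 nm after 320 nm excitation. The 20-min minus 0-min signal was scaled between DMSO/no-enzyme wells and ADEP (5.8 microM final).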
Sfp PPTase inh = blocks B. subtilis Sfp PPTase activity; Q9F4F7; Biochemical Sfp PPTase activity, qHTS; Potency, µM, inactives show max response, negative = inhibition, hits mostly inhibitors; 3.5% of 310,000 active; active means well fitted inhibition curve with a large enough effect; inconclusive means small, poorly fitted or top-dose-only effect, or another doubt; inactive means no such curve, though single readings can be large or run the other way;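 further: the enzyme is Sfp with the accession as filed and its product quenches rhodamine fluorescence; potency means the concentration at half of the fitted maximal effect; 0% = enzyme reaction without inhibitor and -100% = no enzyme wells; top concentration of the series not given in the record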
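Compounds were incubated with enzyme (final 15 nM) for 15 min at room temperature before substrate addition started the reaction. Fluorescence at 525 nm excitation, 598 nm emission was recorded immediately and after 30 minutes.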
Menin-MLL FL inh = inhibitors of human menin-MLL interaction, wild-type MLL peptide | Fluorescence polarization, fluorescein-MLL peptide displacement from menin | 290,000 tested, under 10 active | AID 1766 | FP activity change, % at 61.4 µM; inconclusive = falling polarisation curve, or a change in total fluorescence; inactive = total fluorescence flat and polarisation flat or rising; no compound was filed as active; the % refers to the polarisation; negative = inhibition;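 further: % of control where 0% means no effect; inhibitors lower the polarisation; unlabelled MLL peptide was the positive control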
The depositor's hits bear a star; u = inconclusive; x = no result given; [ ] = dose if it differs, or a comment.

Key to letters: A = gsp ag; B = TRPV1 potentiator; C = gsp antagonist; D = CtBP-E1A inh; E = ClpP mod; F = Sfp PPTase inh; G = Menin-MLL FL inh
mol: CCC(=O)Nc1ccc2nc(C3CC3)n(Cc3ccc(C(C)(C)C)cc3)c(=O)c2c1
  A: -83%[inhibitor]; B: 7; C: 2%; D: -5; E: 12%; F: 2%; G: 3.8

mol: NN=C1c2ccccc2C(=O)C1C(=O)C(c1ccccc1)c1ccccc1 (stereo not given)
  A: 13%[15.4 µM]; B: x; C: -1%; D: -7; E: 1.5%; F: x; G: x

mol: CC(=O)NC(CC(=O)Nc1ccc(S(=O)(=O)N2CCCC2)cc1)c1ccccc1 (stereo not given)
  A: -1%; B: -2; C: -3%; D: 3; E: 0.2%; F: 7%; G: 3.3

mol: Cc1ccc(S(=O)(=O)NCCC(=O)N2CC(C)OC(C)C2)cc1C (stereo not given)
  A: -35%; B: 5; C: -13%; D: -21; E: -3.0%; F: x; G: x

mol: CCc1cccc(NC(=O)CCS(=O)(=O)c2ccc(Br)cc2)c1
  A: u; B: 1; C: -13%; D: x; E: 0.3%; F: -2%; G: 0.4

mol: COc1ccc(NC(=O)Cc2cccs2)cc1S(=O)(=O)N1CCCCC1
  A: 2%[15.4 µM]; B: x; C: -7%; D: 6; E: 0.3%; F: x; G: x

mol: Cc1cccc(S(=O)(=O)N2CCCc3ccccc32)c1
  A: 21%; B: -8; C: -9%; D: 31; E: -0.7%; F: -2%; G: -20

mol: Clc1ccc(-c2nnc(SCc3cn4ccsc4n3)n2CC2CCCO2)cc1 (stereo not given)
  A: 12%; B: -6; C: 6%; D: -2; E: -0.3%; F: 5%; G: 0.6

mol: CCn1ccnc1CN(C)Cc1nc(-c2ccc(C(=O)OC)cc2)no1
  A: -35%[inhibitor]; B: 22; C: -17%; D: 3; E: 0.2%; F: 18%; G: -2.7

mol: O=C1C2N=NN(CC(=O)N3N=C(c4ccccc4)CC3c3ccc([N+](=O)[O-])cc3)C2C(=O)N1c1ccccc1 (stereo not given)
  A: x; B: 1; C: x; D: x; E: x; F: 19%; G: 3.9

mol: C/C(Cl)=C/Cn1c(NCCN(C)C)nc2c1c(=O)n(C)c(=O)n2C
  A: 10%; B: 18; C: 8%; D: -3; E: 0.3%; F: 33%[activator]; G: -0.2

mol: COc1ccccc1N1CCN(CC(=O)Nc2c(C)n(C)n(-c3ccccc3)c2=O)CC1
  A: -31%; B: -5; C: 0%; D: 2; E: x; F: u; G: -0.7

mol: COCCNCCCCOc1c(Cl)cc(C)cc1Br
  A: u; B: 6; C: -9%; D: 1; E: -1.4%; F: -40%; G: 0.5

mol: CCOC(=O)N1CCC(N(CCN(C)C)C(=S)Nc2ccccc2OCC)CC1
  A: 0%; B: 3; C: 3%; D: x; E: -2.6%; F: -5%; G: 1.2

mol: C=CCC[C@@H](Cc1ccc(F)cc1)C(=O)O[C@H](CNC(=O)[C@H](CC=C)CC(=O)N(CCO)Cc1ccccc1)c1ccccc1
  A: u; B: x; C: u; D: 1; E: 0.7%; F: x; G: x

mol: Cc1cc(C)cc(NC(=O)COC(=O)CCn2c(C)csc2=O)c1
  A: u; B: 0; C: -3%; D: x; E: 0.4%; F: x; G: x

mol: O=S(=O)(c1cc(F)ccc1F)N1CCC2(CC1)OCCO2
  A: -53%[inhibitor]; B: -20; C: 14%; D: 3; E: 3.1%; F: -9%; G: x

mol: Cc1onc(-c2ccccc2)c1C(=O)N1CCCC1
  A: 27%; B: 5; C: 4%; D: 3; E: -2.2%; F: 14%; G: -2.7

mol: COc1ccc2c(c1)c(N=NC(N)=S)c(O)n2CC(=O)c1ccccc1
  A: 20%; B: -5; C: 12%; D: 2; E: 0.8%; F: -11%; G: 1.2

mol: Cc1cc(C)c2cc(C(=O)N3CCC(C(=O)c4ccc(F)cc4)CC3)[nH]c2c1
  A: -4%[15.4 µM]; B: -4; C: -2%; D: -4; E: -2.7%; F: -7%; G: -0.9

mol: O=C(CSc1nnc(-c2cccc(F)c2)o1)Nc1nncs1
  A: 4%[15.4 µM]; B: 8; C: -13%; D: 0; E: x; F: -2%; G: -2.3

mol: CC(C)Oc1ccc(/C(O)=C2/C(=O)C(=O)N(Cc3cccnc3)C2c2ccco2)cc1 (stereo not given)
  A: -6%; B: -7; C: -4%; D: -2; E: -1.6%; F: 11%; G: -1.1

mol: CC(=N)C1=C(O)CC(C)(C)CC1=O
  A: 7%; B: 5; C: 9%; D: 2; E: -0.5%; F: 11%; G: 1.4

mol: O=C1CC(N2CCN(S(=O)(=O)c3ccc(Cl)cc3)CC2)C(=O)N1CCc1ccccc1 (stereo not given)
  A: -22%; B: 8; C: -6%; D: 9; E: 0.4%; F: -1%; G: -0.1

mol: CN(C)S(=O)(=O)c1ccc(SCC(=O)Nc2ccc3c(c2)OCCO3)nc1
  A: -2%; B: u; C: 1%; D: -1; E: -1.2%; F: x; G: x

2 entries picked at random from those above:
Key to letters: A = gsp ag; B = TRPV1 potentiator; C = gsp antagonist; D = CtBP-E1A inh; E = ClpP mod; F = Sfp PPTase inh; G = Menin-MLL FL inh
mol: COc1ccc(NC(=O)Cc2cccs2)cc1S(=O)(=O)N1CCCCC1
  A: 2%[15.4 µM]; B: x; C: -7%; D: 6; E: 0.3%; F: x; G: x

mol: COCCNCCCCOc1c(Cl)cc(C)cc1Br
  A: u; B: 6; C: -9%; D: 1; E: -1.4%; F: -40%; G: 0.5

Of the compounds above, these contain an aryl methoxy group:
Key to letters: A = gsp ag; B = TRPV1 potentiator; C = gsp antagonist; D = CtBP-E1A inh; E = ClpP mod; F = Sfp PPTase inh; G = Menin-MLL FL inh
mol: COc1ccc(NC(=O)Cc2cccs2)cc1S(=O)(=O)N1CCCCC1
  A: 2%[15.4 µM]; B: x; C: -7%; D: 6; E: 0.3%; F: x; G: x

mol: COc1ccccc1N1CCN(CC(=O)Nc2c(C)n(C)n(-c3ccccc3)c2=O)CC1
  A: -31%; B: -5; C: 0%; D: 2; E: x; F: u; G: -0.7

mol: COc1ccc2c(c1)c(N=NC(N)=S)c(O)n2CC(=O)c1ccccc1
  A: 20%; B: -5; C: 12%; D: 2; E: 0.8%; F: -11%; G: 1.2

Next part:
Key to letters: A = gsp ag; B = TRPV1 potentiator; C = gsp antagonist; D = CtBP-E1A inh; E = ClpP mod; F = Sfp PPTase inh; G = Menin-MLL FL inh
mol: COC(CSc1ncnc2c1oc1nc3c(cc12)COC(C)(C)C3)OC
  A: u; B: x; C: -9%; D: x; E: -15%; F: 1%; G: 0.0

mol: Cc1cccc(COCC(Cc2ccccc2)N2CCN(C(=O)c3ccc(Cl)c(Cl)c3)CCC2=O)c1 (stereo not given)
  A: x; B: 3; C: -25%; D: -7; E: -1.6%; F: 15%; G: 2.6

mol: C/C=C/Cn1c(N2CCCCCC2)nc2c1c(=O)[nH]c(=O)n2C
  A: -3%; B: -7; C: -6%[15.4 µM]; D: -1; E: -14%; F: -5%; G: 2.2

mol: O=C(OCC(=O)c1ccc(Cl)cc1Cl)c1ccc2c(c1)C(=O)N(c1cccc3ncccc13)C2=O
  A: 16%; B: 28; C: -6%; D: 0; E: -0.4%; F: u; G: 2.6

mol: COc1cc(S(=O)(=O)Nc2cccnc2)ccc1Cl
  A: -57%[inhibitor]; B: -9; C: 1%; D: x; E: 0.5%; F: 12%; G: -3.6

mol: CC(=O)N/C(=C\c1ccccc1)C(=O)OCC(=O)NC(C)C12CC3CC(CC(C3)C1)C2 (stereo not given)
  A: -11%; B: -18; C: -5%; D: 14; E: 0.2%; F: 5%; G: 6.9

mol: O=[N+]([O-])c1ccc(/C=N/Nc2ccc3ccccc3c2)o1
  A: u; B: 1; C: -15%; D: u; E: -1.9%; F: -20%; G: u

mol: Fc1ccc(OCCOCCN2CCCC2)cc1
  A: 0%; B: x; C: 7%; D: 4; E: x; F: x; G: x

mol: O=C(N/N=C/C(Cl)=C\c1ccccc1)c1cnccn1
  A: -5%; B: -13; C: 15%; D: -85*; E: 0.0%; F: -12%; G: 4.1

mol: Cc1ccc(S(=O)(=O)N2CC3(C)CN(S(=O)(=O)c4ccc(C)cc4)CC(C)(C2)C3)cc1
  A: u; B: -29; C: 9%; D: 2; E: 0.3%; F: 6%; G: 1.7

mol: CC(=O)Nc1ccc(S(=O)(=O)NCC2CCC(C(=O)NC(C)c3ccccc3)CC2)cc1 (stereo not given)
  A: 0%; B: 4; C: -3%; D: 8; E: x; F: -4%; G: 0.3

mol: CCN=C1Cn2c(nc3scc(-c4ccccc4)c3c2=O)CN1CC
  A: -2%; B: 4; C: -8%; D: 5; E: -16%; F: -4%; G: 4.4

mol: C=CCNC(=O)c1ccccc1NC(=O)C1CC(=O)N(C(C)C)C1 (stereo not given)
  A: 18%[15.4 µM]; B: -30; C: 0%; D: 3; E: -1.7%; F: 19%; G: 0.6

mol: O=C(Nc1ncc([N+](=O)[O-])s1)c1ccc2c(c1)OCO2
  A: -10%; B: -18; C: -32%; D: -13; E: 0.2%; F: u; G: 13

mol: COc1ccc(CNC(=O)CCC(=O)c2ccc(F)cc2)cc1OC
  A: 9%[15.4 µM]; B: x; C: 10%; D: 7; E: -0.4%; F: x; G: x

mol: CCC(=O)N1CCc2cc(S(=O)(=O)CCC(=O)Nc3c(C)n(C)n(-c4ccccc4)c3=O)ccc21
  A: -52%[inhibitor]; B: x; C: -2%; D: 3; E: -1.7%; F: x; G: x

mol: O=C(CN1CCCCC1)NC(=O)NC1CCCCC1
  A: u; B: -9; C: 7%; D: x; E: -2.0%; F: x; G: x

mol: Cc1cc(C)nc(N(C#N)S(=O)(=O)c2ccccc2Cl)n1
  A: -3%; B: 1; C: 9%; D: 8; E: -21%; F: -3%; G: 0.6

mol: CC(=O)Nc1ccccc1C(=O)N1CC(C)OC(C)C1 (stereo not given)
  A: 12%; B: -10; C: 0%[15.4 µM]; D: 1; E: -3.8%; F: 16%; G: 5.2

mol: COCCCNC(=O)CC1C[C@H](C(=O)N(C(C)C)C(C)C)[C@@]2(C)c3[nH]c4ccc(OC)cc4c3CCN2C1=O (stereo not given in full)
  A: x; B: x; C: 2%; D: 2; E: -3.6%; F: x; G: x

mol: O=C(O)C1C2CCC(CC2)C1C(=O)N1CCN(Cc2ccc(F)cc2)CC1 (stereo not given)
  A: -21%; B: -1; C: 5%; D: x; E: -0.7%; F: 35µM*; G: -5.8

mol: COc1cccc(/C=C2/NC(=O)NC2=O)c1OCC(=O)Nc1ccccc1
  A: -22%; B: 7; C: -7%; D: 3; E: x; F: 10%; G: -4.1
